High-throughput results deposited in PubChem by ICCB-Longwood Screening Facility, Harvard Medical School.
MgrA DNA FP: S. aureus MgrA activity modulators, primary screen, biochemical, S. aureus Newman, fluorescence polarization. 84,000 tested, 0.13% active. AID 602314, 2012. MgrA-DNA binding. inhibition, %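 (about 10 µg/mL by stock and volumes)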;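 active = above 50% in either of two replicates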;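 note: 0% = protein plus DNA without compound and 100% = DNA alone without protein; higher means less MgrA bound to DNA so lower polarization; one replicate is shown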
Sa helicase inh: inhibitors of S. aureus replicative helicase, primary screen, biochemical, fluorescence unwinding readout; replicative DNA helicase (DnaC/DnaB), Staphylococcus aureus; inhibition, %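 (tested at about 80 µM)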; purified S. aureus helicase, fluorescence unwinding assay; about half of the hits fall short of the stated cut; 120,000 tested, 0.05% active;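 active = both duplicates at 50% or more, or one of them with a favoured structure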;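 note: 0% = mean of negative control wells and 100% = mean of positive control wells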
Numbers without * were called inactive; . = no result given; & = joins results of further samples.

SMILES	MgrA DNA FP	Sa helicase inh
CCN(CC)C(=O)NC(=O)c1c(C)cc(Cl)nc1Cl	2.5	6
Cc1nn(-c2ccccc2)nc1C(=O)Sc1ccccn1	8.6	.
Cn1c(=O)c(=O)n(C)c2cc(S(=O)(=O)CCC(=O)N3CCCc4ccccc43)ccc21	-2.1	9
COc1cccc(OCCCSC(C)C)c1	0.2	-4
CCc1ccc2c(C)cc(=O)oc2c1	-1.2	.
CN(C)c1ccc(CN(CC2CCCO2)S(=O)(=O)c2ccccc2C#N)cc1 (stereo unspecified)	.	19
O=C(CO/N=C/c1ccco1)N1CCN(S(=O)(=O)c2ccc3ccccc3c2)CC1	.	13
O=C(c1ccccc1Br)N1CCN(c2ccccc2)CC1	1.3	15
O=c1oc2ccccc2c(N2CCCCC2)c1CN1CCCCC1	.	8
COc1cccc(OC)c1CN(C)C(=O)c1cnc(Oc2ccccc2)cc1C(F)(F)F	0.9	.
CSc1nn(C)c2cnn(C)c(=O)c12	15	.
COc1ccc(CCNC(=S)NCCc2ccc(OC)c(OC)c2)cc1OC	-2.0	.
c1ccc2c(c1)ncn2-c1ncnc2sc3c(c12)CCCC3	0.2	8
O=C1CCCc2c1cc(-c1ccccc1)n2-c1cccnc1	.	13
CC(C(O)c1ccccc1)N(C)S(=O)(=O)c1ccc(Cl)cc1 (stereo unspecified)	0.4	-20
CCCCCC(=O)Nc1ccc2oc(-c3cccnc3)nc2c1	.	18
CCc1ccc(N(C2C=CS(=O)(=O)C2)S(=O)(=O)c2ccccc2)cc1 (stereo unspecified)	0.6	4
COc1ccc(-n2c(=O)c3ccccc3n(Cc3ccccc3C#N)c2=O)c(OC)c1	.	8
Cc1ccc(-c2nc(C(=O)NCCN3CCc4ccccc4C3)c3n2CCCCC3)cc1	1.6	12
CSc1nc2ccc(NC(=O)c3ccc4ncsc4c3)cc2s1	.	38
CCOc1ccc(N2CC(C#N)=C3c4cc(OC)c(OC)cc4CCN3C2)cc1	0.9	-3
CC(=O)Nc1ccc2sc(C)nc2c1	-0.4	5
O=C(NCCc1nc2ccccc2[nH]1)c1[nH]nc2c1CCc1ccccc1-2	.	21
NOCc1cccc(C(F)(F)F)c1	-3.4	.
CC1(C)CC(=O)C2=C(C1)Nc1[nH]c(=S)[nH]c(=O)c1C2c1cccs1 (stereo unspecified)	0.2	5
O=C(NC1CCCCC1)c1cc(-c2ccccn2)nc2ccccc12	0.7	-19
O=C(CSc1nnc(COc2ccccc2)o1)N1CCCC1	1.5	-2
NCCCN1CCCc2ccccc21	3.2	9
COc1ccc(/C=C/C(=O)N2c3ccccc3CC2C)cc1OC (stereo unspecified)	-0.6	-16
CCCn1c(N2CCN(C(=O)N3CCCCC3)CC2)nc2ccccc21	-2.3	-9
CC1CCN(S(=O)(=O)c2ccc(NC(=O)/C=C/c3ccccc3)cc2)CC1	1.6	-4
Cc1cc(C(=O)OC2CCOC2=O)c2ccccc2n1 (stereo unspecified)	.	-10
Cc1ccsc1CNS(=O)(=O)c1ccc2c(c1)CCO2	1.6	.
CCOC(=O)c1cc2c(ccn2C)n1CC(=O)N(c1ccccc1)c1ccccc1	-2.9	6
O=C(CSc1nnc(-c2cc3ccccc3[nH]2)n1-c1ccccc1)N1CCNC1=O	.	4
CCCc1cc(=O)[nH]c(SCCOC(=O)c2ccccc2)n1	.	-2
COc1ccc(C2=CSC3=C(C(=O)c4cc(OC)c(OC)c(OC)c4)CCN23)cc1	.	21
O=C1/C(=C/c2cccs2)Cc2ccccc21	-1.2	.
O=S(=O)(Nc1cccc(Oc2ccc(Cl)cc2)n1)c1ccc(F)cc1	0.6	.
CC(Sc1nc2sccc2c(=O)n1C)C(=O)Nc1ccc2c(c1)OCO2 (stereo unspecified)	.	12

Arranged by number of heavy atoms (low to high): part of the list above.
SMILES	MgrA DNA FP	Sa helicase inh
Cc1ccsc1CNS(=O)(=O)c1ccc2c(c1)CCO2	1.6	.
CC(Sc1nc2sccc2c(=O)n1C)C(=O)Nc1ccc2c(c1)OCO2 (stereo unspecified)	.	12
CCOC(=O)c1cc2c(ccn2C)n1CC(=O)N(c1ccccc1)c1ccccc1	-2.9	6

Additional results
SMILES	MgrA DNA FP	Sa helicase inh
Cc1cc(CNC(C)c2ccncc2)c(C)n1-c1ccnn1C(C)C (stereo unspecified)	.	6
O=C(Nc1ccc2[nH]c3c(c2c1)CCCC3)c1cccs1	.	-27
Cc1nn(-c2ccccc2)nc1-c1nnc(-c2ccc(C(F)(F)F)cc2)o1	1.0	.
C[N+](C)(C)CCCCCC[N+](C)(C)C	1.3&2.8	.
Cn1c(SCC(=O)NN)nnc1-c1ccccc1	-0.3	3
O=C(O)C1C2C=CC(O2)C1C(=O)Nc1ccccc1 (stereo unspecified)	-2.3	7
CC(C)(CO)N=Cc1cc(Cl)cc(Cl)c1O	10	.
O=C(CCC(=O)c1cccs1)NCc1ccc(Cl)cc1	-0.8	-24
Cc1ncc(CN2CCOCC2)c(N)n1	.	-1
CC1CN(C(=O)CSc2ncc(C(F)(F)F)cc2Cl)CC(C)O1 (stereo unspecified)	.	-16
COc1cccc(C2C(=O)c3ccccc3C2=O)c1	-3.2	.
CCN1CCCC1CNC(=O)Cn1ncc2c3ccccc3n(Cc3cc(C)ccc3C)c2c1=O (stereo unspecified)	.	3
O=C(c1ccccc1)c1ccc(OCC(O)CN2C(=O)c3ccccc3C2=O)cc1 (stereo unspecified)	-6.4	11
O=C(Nc1ccc2c(c1)oc1ccccc12)c1cccs1	-0.1	0
CC(C)CN1CCOC(CNC(=O)Nc2ccc(Cl)c(Cl)c2)C1 (stereo unspecified)	.	-3
CCN(CC)c1ccc(O)c(/C=N/N2C(=O)/C(=C/c3ccco3)N=C2c2ccccc2)c1	-0.6	-69
O=C(c1cccs1)N1CCC(c2ccccc2)C1 (stereo unspecified)	.	0
COc1ccc(CC(=O)NN2C(=O)CSCC2=O)cc1OC	0.9	.
O=C(c1ccccc1)N1CCN(C(=O)c2nn3c(C(F)(F)F)cc(-c4cccs4)nc3c2Br)CC1	0.9	.
COc1ccc(C(=O)NCCc2cccs2)cc1	0.0	.
COC(=O)c1ccc(NC(=O)CNC(=O)C2CCCCC2)c(C)c1	.	2
COc1cc(NC(=O)c2cc(=O)n3c(nc4ccccc43)s2)cc(OC)c1	.	6
O=C(Nc1nn2cnnc2s1)C12CC3CC(CC(O)(C3)C1)C2	.	-7
Clc1ccc(CSc2nc3ccccc3[nH]2)cc1	-2.8	.
CCc1cccc2c(C#N)cn(CC(=O)NC3CCCC3)c12	-2.4	-4
Cc1ccccc1NC(=O)Nc1nnc(N2CCCC2)s1	.	18
O=C(Nc1ccccc1C(F)(F)F)c1cc(Cl)cc(Cl)c1	-3.4	.
O=C(O)c1n[nH]nc1-c1ccccc1	-1.1	14
O=C(NCC1COc2ccccc2O1)c1ccc(NC(=O)c2ccc(Br)o2)cc1 (stereo unspecified)	0.7	0
c1csc(CN2CCN(Cc3cccs3)C2c2cccs2)c1	-1.0	5
O=C(O)c1cccc([N+](=O)[O-])c1C(=O)Nc1ccc(F)cc1	-1.4	.
CCCNC(=O)C1CCCN(c2nc3c(C)cc(C)cc3s2)C1 (stereo unspecified)	-0.9	13
O=C(Nc1cccc(C(F)(F)F)c1)c1cc(-c2ccccc2)on1	-2.0	12
COC(=O)Cc1nc(-c2ccccc2)sc1C	-1.4	.
Cc1c(CN2CCOCC2)c(=O)n(-c2ccccc2)n1C	-0.7	6
COC(=O)CNS(=O)(=O)c1ccc(I)cc1	-6.2	14
O=C(Cc1nc2ccccc2n1C(=O)c1ccccc1)N1CCOCC1	0.9	5
N#CC(C(=O)c1cccc(N2C(=O)CCC2=O)c1)c1ccccn1 (stereo unspecified)	.	7
O=C(c1ccccc1)C1Oc2ccccc2OC1O (stereo unspecified)	-0.9	0
CCS(=O)(=O)c1ccc2oc(SCC(=O)NCc3ccccc3)nc2c1	.	6
COc1ccccc1N=C(NC#N)SC	-1.8	.
Nc1ccc(Sc2ccccc2)nc1Sc1ccccc1	-0.8	.
Cc1cccc(C)c1-n1nnnc1S(=O)(=O)Cc1ccccc1Cl	1.6	-3
O=C(O)C1C2C=CC(O2)C1C(=O)N1CCN(c2ccccc2)CC1 (stereo unspecified)	4.0	-1
Cc1ccccc1Nc1nc(CCl)cs1	-2.2	-2
N#Cc1c(N2CCOCC2)nc2c3c(nc4c(c13)CC(=O)N4c1cccc(Cl)c1)NC1(CCCCC1)N2	.	0
CC1(C)CC(N2CCCCC2)=CC(=S)S1	-1.5	.
COc1ccc(OCc2nnc(SCC(=O)O)n2N)cc1	-4.6	10
Cc1nn(CC(=O)Nc2ccc3c(c2)oc2ccccc23)c(=O)c2ccccc12	1.1	-5
Cc1cc(C(C)(C)CC(C)(C)C)ccc1OCCOCC[N+](C)(C)Cc1ccccc1	-0.4&-1.5	.

(listing goes on)
SMILES	MgrA DNA FP	Sa helicase inh
Cc1cc(N2CCCCC2)nc2ccc(NC(=O)CCC(=O)N3CCC(C)CC3)cc12	.	-32
O=C(Nc1ccc(Cl)cc1)n1nc(C(F)(F)F)c2cnccc21	-2.9	.
Cn1c(=O)c2c(nc(SCC(=O)NC3CCCCC3)n2C)n(C)c1=O	-2.5	8
CCOC(=O)c1[nH]c(CSc2nnc(-c3ccco3)n2-c2ccccc2)c(C(=O)OCC)c1C	.	6
CCC(=O)NC(C)c1nc2ccccc2n1Cc1ccccc1F (stereo unspecified)	.	-18
COc1ccc(OC)c(C2(O)CSC(=Nc3cccnc3)N2C2CC2)c1 (stereo unspecified)	.	0
CC1CCCN(CC(O)COCc2ccc3c(c2)OCO3)C1 (stereo unspecified)	.	-2
CCCCN(C)C(=O)c1cc2c(s1)-c1ccccc1S(=O)(=O)C2	.	8
N#Cc1ccc(CSc2nnc(CNc3ccccc3)o2)cc1	-2.0	13
COc1ccc(C(=O)CSc2nnc(CCC(=O)O)c(=O)[nH]2)cc1OC	.	22
CCn1cc(C(=O)O)c(=O)c2cc(F)c(N3CCN(C(=O)c4ccc(F)cc4)CC3)cc21	2.7	12
O=C(c1ccc(CSc2ncn[nH]2)cc1)N1CCN(S(=O)(=O)c2ccc3c(c2)CCC3)CC1	.	2
O=C1C2C3C=CC(C3)C2C(=O)N1CNc1ccc(O)cc1 (stereo unspecified)	2.7	7
O=c1oc(COc2ccc(Cl)cc2Cl)nc2ccccc12	4.0	.
Cc1cc(S(=O)(=O)/N=C(\N)c2ccc(C(N)=O)cc2)cc(C)c1F	-1.1	.
Cc1ccc(OCC(=O)NC2CCS(=O)(=O)C2)cc1 (stereo unspecified)	0.3	6
Cc1cc2nc(C(F)(F)F)cc(C)n2n1	-3.1	.
CC1CN(CCc2ccccc2)c2nc3c(c(=O)n(CC(N)=O)c(=O)n3C)n2C1 (stereo unspecified)	-2.0	-2
COc1ccc(N2CC(=O)N(/N=C/c3ccccc3C(=O)O)C2=S)cc1	-4.2	7
N/C(=N\OCC(=O)N1CCOCC1)c1nonc1N	0.7	15

Filtered by structure: those above containing a cyano group
SMILES	MgrA DNA FP	Sa helicase inh
CN(C)c1ccc(CN(CC2CCCO2)S(=O)(=O)c2ccccc2C#N)cc1 (stereo unspecified)	.	19
COc1ccc(-n2c(=O)c3ccccc3n(Cc3ccccc3C#N)c2=O)c(OC)c1	.	8
CCOc1ccc(N2CC(C#N)=C3c4cc(OC)c(OC)cc4CCN3C2)cc1	0.9	-3
CCc1cccc2c(C#N)cn(CC(=O)NC3CCCC3)c12	-2.4	-4
N#CC(C(=O)c1cccc(N2C(=O)CCC2=O)c1)c1ccccn1 (stereo unspecified)	.	7
COc1ccccc1N=C(NC#N)SC	-1.8	.
N#Cc1c(N2CCOCC2)nc2c3c(nc4c(c13)CC(=O)N4c1cccc(Cl)c1)NC1(CCCCC1)N2	.	0
N#Cc1ccc(CSc2nnc(CNc3ccccc3)o2)cc1	-2.0	13

Continuation:
SMILES	MgrA DNA FP	Sa helicase inh
CN1/C(=C\C(=O)NC2CCCCC2)C(C)(C)c2ccccc21	-1.6	-5
Cc1cc(C)c2c(-n3cccc3)nn(CCCC(=O)NC3CCCCCC3)c2n1	.	-2
COc1ccc(-c2noc(N3CCCC(C(=O)NCCCN4CCC(C)CC4)C3)n2)cc1 (stereo unspecified)	-1.1	-4
CCOC(=O)C(C)Sc1nc(N)nc(SC)c1C#N (stereo unspecified)	-1.5	11
CC(=O)Nc1ccc(-c2nc3cc(Cl)ccc3o2)cc1	-0.7	19
Cc1cc(C)c2ccc(O)cc2n1	.	-9
CCc1cc(C(=O)c2ccc(OC)cc2)c(NC(=O)CN2CCN(C)CC2)s1	.	-15
CN(C)C(=O)CSc1nc2scc(-c3ccccc3)c2c(=O)[nH]1	.	-58
COC(=O)C1=C(C)NC2=C(C(=O)CCC2)C1c1c(F)cccc1F (stereo unspecified)	-0.4	13
Cc1nn(-c2ccccc2)c(N2CCCCC2)c1/C=N/NC(=O)c1ccncc1	.	11
CCn1c(N)c(C(=O)NCC2CCCO2)sc1=S (stereo unspecified)	.	0
CC1=NC(C(F)(F)F)(C(F)(F)F)C2=C(CC(C)(C)CC2=O)N1Cc1ccco1	.	27
O=C(N=c1scc(-c2ccccc2)n1-c1ccccc1)c1ccccc1	1.2	-1
Cc1ccc2c(c1)c1c3n2CCN(C(=O)c2ccco2)C3CCC1 (stereo unspecified)	.	-10
CC(C)(C)c1csc(=S)n1CCc1ccc(Cl)cc1	-1.4	.
CC(C)OC(=O)c1ccc(NC(=O)c2ccc(Cn3cc(Cl)cn3)cc2)cc1	-0.4	-2
COC(=O)c1ccc(CSc2ccccc2N)o1	1.0	.
COC(=O)CSC(=S)N1CCCC(C)C1 (stereo unspecified)	.	18

Not all compounds are listed, so the mix of outcomes need not match the whole.
